ASAP1 inh: inhibitors of human ASAP1 ArfGAP activity, primary screen, biochemical, fluorescence polarization | hit rate 0.19% among 360,000 | Arf-GAP with SH3 domain, ANK repeat and PH domain-containing protein 1 (Homo sapiens), … | ASAP1-stimulated ARF1 GTP hydrolysis, GDP FP detection | inhibition, % at 16.5 µM; in the data active = inhibition above about 25%;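 note: 0% = vehicle with enzyme and substrate and 100% = no enzyme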
PLC-gamma1 inh: PLC-gamma1 enzyme inhibitors, primary screen, biochemical, fluorescence, purified enzyme | 1-phosphatidylinositol 4,5-bisphosphate phosphodiesterase gamma-1 (Homo sapiens), P19174 | fluorogenic substrate | inhibition, % at 12.2 µM | hit rate 0.84% among 370,000; in the data active = inhibition above about 9.5%
DDE Tn6 FP inh: inhibitors of Tn6 peptide binding to fibrin DD(E), primary screen, biochemical, fluorescence polarization, human fibrin, Tn6 probe. Fibrin DD(E) TRITC-Tn6 fluorescence polarization displacement. Fibrinogen beta chain (Homo sapiens), P02675. hit rate 0.21% among 370,000. inhibition, % at 8.3 µM;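 active = inhibition above a per-campaign cutoff: mean of compounds within control limits plus 3 SD, cut at about 15% in these data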;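 note: 0% = median of all compound wells on the plate and 100% = blocking peptide control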
NR1D1 modulator: modulators of Rev-erb alpha DNA binding, primary screen, biochemical, FITC-DNA, fluorescence polarization, uHTS; hit rate 0.79% among 370,000; Nuclear receptor subfamily 1 group D member 1 (Homo sapiens), P20393; Rev-erbα–FITC-DNA binding, 90 min; activity, % at 10 µM; AID 1259318, 2017;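 active = activity above about 14%, limit read from the data; passing the limit was not always enough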;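 note: 0% = DMSO wells with 35 nM protein and 100% = DMSO wells with 750 nM protein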
Target sequence (P20393 whole entry, looked up): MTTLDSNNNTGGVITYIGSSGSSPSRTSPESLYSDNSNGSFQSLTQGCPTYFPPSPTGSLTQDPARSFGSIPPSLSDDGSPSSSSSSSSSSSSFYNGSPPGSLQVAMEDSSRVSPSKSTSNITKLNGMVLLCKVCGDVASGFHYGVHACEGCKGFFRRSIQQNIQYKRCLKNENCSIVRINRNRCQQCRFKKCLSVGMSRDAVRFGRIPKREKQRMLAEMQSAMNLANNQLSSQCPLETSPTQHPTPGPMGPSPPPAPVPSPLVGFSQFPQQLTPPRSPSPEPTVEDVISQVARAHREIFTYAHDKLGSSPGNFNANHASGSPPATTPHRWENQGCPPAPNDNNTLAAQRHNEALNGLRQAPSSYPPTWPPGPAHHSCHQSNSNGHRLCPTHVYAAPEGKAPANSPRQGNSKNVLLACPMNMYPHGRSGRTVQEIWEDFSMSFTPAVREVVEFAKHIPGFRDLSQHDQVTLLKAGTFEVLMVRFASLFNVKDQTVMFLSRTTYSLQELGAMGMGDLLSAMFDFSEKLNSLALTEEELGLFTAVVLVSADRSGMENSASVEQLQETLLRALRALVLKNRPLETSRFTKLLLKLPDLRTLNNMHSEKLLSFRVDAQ
ARFGAP1 inhibitor: inhibitors of rat ARFGAP1 GAP activity, primary screen, biochemical, fluorescence polarization, GDP tracer | ADP-ribosylation factor GTPase-activating protein 1 (Rattus norvegicus), Q62848 | Arfgap1-stimulated ARF1 GTP hydrolysis, GDP FP detection | inhibition, % at 16.5 µM | hit rate 0.26% among 360,000 | AID 651572, 2012;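 active = inhibition above a per-plate limit, mean inhibition of low control wells plus 3 SD, cut at about 25% in these data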;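 note: 0% = DMSO wells with enzyme and 100% = wells lacking Arfgap1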
Target sequence (Q62848 1-136 limits assumed): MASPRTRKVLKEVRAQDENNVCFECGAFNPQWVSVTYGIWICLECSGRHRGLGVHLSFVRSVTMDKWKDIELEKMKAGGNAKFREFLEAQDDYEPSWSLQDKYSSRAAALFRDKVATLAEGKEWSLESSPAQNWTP
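system = rat Arfgap1 catalytic domain, aa 1-136 | technique = FP, GDP Alexa 633 tracer displaced from anti-GDP antibody, 620/688 nm | compound = one concentration, 16.5 µM, DMSO 1.26% | medium = HEPES-based buffer, pH 7.5 | timing = compound-enzyme preincubation 20 min, reaction 120 min, detection 60 min, 25 °C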
HGIII-sPLA2 inh: human group III sPLA2 inhibitors, primary screen, biochemical, QFRET, BODIPY PC-A2 liposome substrate; Group 3 secretory phospholipase A2 (Homo sapiens), Q9NZ20; QFRET BODIPY PC-A2 liposome hydrolysis, fluorescence; inhibition, % at 12.2 µM; hit rate 0.56% among 370,000; AID 743126, 2013;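 active = inhibition above mean plus 3 SD of compounds lying within the high and low control bounds, cut at about 19% in these data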;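 note: 0% = median of test compound wells and 100% = no enzyme DMSO wells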
UHRF1 MBD2 ctr: UHRF1 methylated DNA binding inhibitors, primary screen, counter-screen for MBD2 inhibitor project, biochemical, TR-FRET, human UHRF1, single concentration; UHRF1 binding to methylated oligo; inhibition, % at 4.4 µM; hit rate 0.75% among 370,000; AID 687016, 2013; in the data active = inhibition above about 21%;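 note: UHRF1 SRA domain binding a hemimethylated CpG hairpin DNA probe; 0% = median of test compound wells and 100% = reference inhibitor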
Tn7 DDE FP: inhibitors of Tn7 peptide binding to fibrin DD(E), primary screen, biochemical, fluorescence polarization, human fibrin, Tn7 probe. inhibition, % at 8.3 µM. FP displacement of FITC-Tn7 peptide from fibrin DD(E); 0% = median of compound wells per plate. AID 720508, 2013. hit rate 0.13% among 370,000;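 active = inhibition above the mean of compounds falling within the control limits plus 3 SD of them, cut at about 14% in these data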;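 note: 0% = plate median of compound wells and 100% = 10 µM Aha-Tn7 peptide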
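System: human fibrin DD(E); quantity: Fibrin-DD(E) at 2 µM final; also added: fluorescent Tn7 probe at 0.1 µM; compound dosing: single nominal test concentration of 8.3 µM per compound; schedule: 10 min preincubation, 3 h with tracer, room temperature; detection: fluorescence polarization of the labelled Tn7 tracer; repeats: one replicate per compound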
PLC-beta3 inh: human PLC-beta3 inhibitors, primary screen, biochemical, fluorescence; Purified PLC-beta3, fluorogenic substrate; inhibition, % at 12.2 µM; hit rate 0.18% among 370,000; in the data active = inhibition above about 11%;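 note: 0% = median of compound wells on plate and 100% = full blocker control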
An asterisk follows results filed as active; x = no result given. Only part of the results is shown; count on the stated rates, not on these rows.

Molecule,ASAP1 inh,PLC-gamma1 inh,DDE Tn6 FP inh,NR1D1 modulator,ARFGAP1 inhibitor,HGIII-sPLA2 inh,UHRF1 MBD2 ctr,Tn7 DDE FP,PLC-beta3 inh
O=C(Cn1c2ccccc2c(=O)c2cc([N+](=O)[O-])ccc21)Nc1ccccc1Cl,16.2,-5.4,0.5,9.5,12.3,0.7,-1.5,-3.6,-7.2
CC(C)C(=O)NC(Nc1cc(C(F)(F)F)ccc1Cl)C(Cl)(Cl)Cl (centres undefined),2.5,2.2,-0.8,0.8,8.2,3.1,-5.1,-4.4,5.9
C=CCS(=O)(=O)N1CCC(CCOc2ccccc2)(C(=O)OCC)CC1,1.9,1.8,-1.0,4.8,17.3,-1.2,2.9,-9.6,3.2
CC(=O)Nc1ccc(S(=O)(=O)NC2(C(F)(F)F)C(=O)Nc3c2c(=O)[nH]c(=O)n3Cc2ccco2)cc1 (centres undefined),1.2,3.9,-13.0,-7.0,1.9,1.3,13.9,-6.0,6.6
COc1ccc(Nc2nc(N)nc(CCl)n2)cc1,-10.2,-1.5,-1.6,5.4,5.1,8.9,1.1,3.2,-4.7
CCCN(CCC)CCc1cccc2c1CC(=O)N2,x,-1.5,3.8,-2.2,x,-10.9,0.0,0.4,-1.1
Cc1ccc(S(=O)(=O)N2CCN(c3ncnc4ccccc34)CC2)cc1,-20.3,-0.4,-2.2,5.5,-8.4,3.7,-1.0,-0.5,-7.8
O=C(O)C1C2C=CC(C2)C1C(=O)NCCC1=CCCCC1 (centres undefined),7.7,-2.2,-0.5,2.2,-1.4,3.5,-1.8,1.7,-4.2
CCC1(c2ccc(F)cc2)NC(=O)N(CC(=O)Nc2cc(S(=O)(=O)N(C)C)ccc2Cl)C1=O (centres undefined),2.5,0.7,-13.6,-3.2,3.3,-13.8,-0.1,-5.0,1.6
CC12CCC(C(=O)N(CC(O)CN3CCCCC3)C1=O)C2(C)C (centres undefined),10.4,-0.8,-4.2,-1.8,-2.2,5.8,2.9,-1.9,-0.8
Cc1sc2c(c1C)CN(C(C)(C)C)CN2C(=O)c1ccccc1,0.7,-20.4,-0.1,0.2,-11.9,1.7,-0.7,-4.7,-27.6
CCCCOC(=O)C1=C(C)Nc2nnnn2C1c1ccc(OC)c(OC)c1OC (centres undefined),15.4,-4.6,-5.6,0.2,8.7,-13.3,-1.7,7.6,-4.3
CCOc1ccc(N(CC(=O)NCCOc2ccc(C)cc2)S(=O)(=O)c2ccccc2)cc1,2.8,3.7,3.0,2.0,9.2,3.1,2.9,1.5,-8.1
NC(=O)C1CCCCc2c1[nH]c1ccc(Cl)cc21 (centres undefined),13.7,-5.2,0.3,-3.9,-1.6,-25.7,2.2,4.2,-11.7
CC(=O)Nc1ccc(CN2CCCC(CO)(Cc3ccccc3C)C2)cc1 (centres undefined),-8.7,2.0,7.8,6.4,4.9,-6.8,1.1,-0.9,1.6
Cc1ccc(CNC(=O)C2CC3Cn4c(nc5cc6ccccc6cc54)C3N2C)o1 (centres undefined),-10.5,-19.0,-1.0,6.8,-3.7,-3.8,1.1,2.9,-24.9
CC(=O)CCc1oc2ccc([N+](=O)[O-])cc2c1-c1ccc(C)o1,-2.6,-0.3,-5.1,5.9,2.9,-6.5,-1.4,-0.8,2.2
CCOc1cc(/C=N/n2cnnc2)ccc1OC(=O)c1cccc([N+](=O)[O-])c1,6.5,-2.3,-0.7,1.1,9.2,2.8,-0.4,3.5,-0.9
CCOC(=O)N1CCN(C(=O)c2ccc3c(=O)n(-c4ccc(F)cc4)c(=S)[nH]c3c2)CC1,-9.6,-0.2,2.1,2.5,-0.2,3.1,1.2,1.2,1.0
COCCNC(=O)C(c1ccncc1)N(Cc1ccccc1)C(=O)Cn1nnc2ccccc21 (centres undefined),-1.4,-0.8,-4.5,-0.7,15.2,-2.7,-1.3,7.1,5.0

Single records (already shown).
Results for COc1ccc(Nc2nc(N)nc(CCl)n2)cc1 → ASAP1 inh = -10.2; PLC-gamma1 inh = -1.5; DDE Tn6 FP inh = -1.6; NR1D1 modulator = 5.4; ARFGAP1 inhibitor = 5.1; HGIII-sPLA2 inh = 8.9; UHRF1 MBD2 ctr = 1.1; Tn7 DDE FP = 3.2; PLC-beta3 inh = -4.7
Results for CCCCOC(=O)C1=C(C)Nc2nnnn2C1c1ccc(OC)c(OC)c1OC (centres undefined) → ASAP1 inh = 15.4; PLC-gamma1 inh = -4.6; DDE Tn6 FP inh = -5.6; NR1D1 modulator = 0.2; ARFGAP1 inhibitor = 8.7; HGIII-sPLA2 inh = -13.3; UHRF1 MBD2 ctr = -1.7; Tn7 DDE FP = 7.6; PLC-beta3 inh = -4.3
Results for CCOc1ccc(N(CC(=O)NCCOc2ccc(C)cc2)S(=O)(=O)c2ccccc2)cc1 → ASAP1 inh = 2.8; PLC-gamma1 inh = 3.7; DDE Tn6 FP inh = 3.0; NR1D1 modulator = 2.0; ARFGAP1 inhibitor = 9.2; HGIII-sPLA2 inh = 3.1; UHRF1 MBD2 ctr = 2.9; Tn7 DDE FP = 1.5; PLC-beta3 inh = -8.1

Two entries drawn at random from the list so far:
Molecule,ASAP1 inh,PLC-gamma1 inh,DDE Tn6 FP inh,NR1D1 modulator,ARFGAP1 inhibitor,HGIII-sPLA2 inh,UHRF1 MBD2 ctr,Tn7 DDE FP,PLC-beta3 inh
C=CCS(=O)(=O)N1CCC(CCOc2ccccc2)(C(=O)OCC)CC1,1.9,1.8,-1.0,4.8,17.3,-1.2,2.9,-9.6,3.2
NC(=O)C1CCCCc2c1[nH]c1ccc(Cl)cc21 (centres undefined),13.7,-5.2,0.3,-3.9,-1.6,-25.7,2.2,4.2,-11.7

Continuation.
Labels used below: A = ASAP1 inh; B = PLC-gamma1 inh; C = DDE Tn6 FP inh; D = NR1D1 modulator; E = ARFGAP1 inhibitor; F = HGIII-sPLA2 inh; G = UHRF1 MBD2 ctr; H = Tn7 DDE FP; I = PLC-beta3 inh
O=C(O)c1ccc(S(=O)(=O)N2CCC(NC(=O)C3CCCCC3)CC2)cc1
  A = -9.2	B = 1.7	C = -7.3	D = -0.6	E = 13.8	F = 0.6	G = 3.4	H = 4.3	I = -2.9

O=C(CSCc1ccc([N+](=O)[O-])cc1)NN=C1CCCCCC1
  A = 3.8	B = -0.1	C = 1.4	D = -3.2	E = -3.3	F = -3.0	G = 1.1	H = 6.9	I = -1.8

O=C(O/N=C\c1ccc(N2CCCCC2)c([N+](=O)[O-])c1)c1cccc(Cl)c1
  A = 11.8	B = 0.7	C = -5.7	D = 0.6	E = -0.9	F = 4.7	G = -1.2	H = -1.7	I = 0.6

C/C(=N\NC(=O)c1nnn(-c2nonc2N)c1CSc1ccc(Cl)cc1)c1cccnc1
  A = 3.6	B = 0.9	C = 1.1	D = 10.6	E = -3.4	F = 4.1	G = -3.3	H = 1.3	I = -5.8

CN(C(=O)COC(=O)c1cccnc1Nc1cccc(C(F)(F)F)c1)C1CCS(=O)(=O)C1 (centres undefined)
  A = -1.2	B = -33.3	C = 6.0	D = -2.1	E = -1.5	F = -2.8	G = 2.7	H = 7.2	I = -32.3

O=C1CC(N2CCN(c3nc4ccccc4s3)CC2)C(=O)N1c1cccc(F)c1 (centres undefined)
  A = -0.4	B = -1.0	C = -2.3	D = 3.1	E = -13.0	F = -18.2	G = -5.6	H = -6.4	I = 0.3

Fc1cccc(CN2CCCCCCC2)c1
  A = 5.0	B = 2.4	C = -3.1	D = 1.7	E = 7.1	F = 10.0	G = 10.5	H = 0.0	I = 1.6

CCOc1cc(C2C3=C(CC(C)(C)CC3=O)N(C)C3=C2C(=O)CC(C)(C)C3)ccc1O
  A = -9.6	B = -7.2	C = -3.6	D = -2.4	E = -10.4	F = -7.0	G = -8.0	H = -2.6	I = -12.9

Cc1cc(/C=N\NC(=O)COc2cccc3cccnc23)c(C)n1-c1ccccc1
  A = -4.6	B = -23.0	C = -4.2	D = -0.4	E = -2.6	F = 1.2	G = -5.0	H = 3.0	I = -25.9

Some of these compounds in order of their number in HGIII-sPLA2 inh, low to high.
structure | HGIII-sPLA2 inh
CN(C(=O)COC(=O)c1cccnc1Nc1cccc(C(F)(F)F)c1)C1CCS(=O)(=O)C1 (centres undefined) | -2.8
Cc1sc2c(c1C)CN(C(C)(C)C)CN2C(=O)c1ccccc1 | 1.7
O=C(O/N=C\c1ccc(N2CCCCC2)c([N+](=O)[O-])c1)c1cccc(Cl)c1 | 4.7
